Screens from PubChem BioAssay.
nsP2pro inh: Primary qHTS for inhibitors of NSP2Pro chikungunya virus (CHIKV) | Polyprotein P1234 (Chikungunya virus (strain S27-African prototype)), Q8JUX6 | FRET peptide cleavage, nsP2pro, fluorescence 1 h | Potency, µM (top dose mostly 24.9 µM), for the others: at the top dose activity change, negative = inhibition, actives largely listed as inhibitors | 1.1% of 31,000 active | AID 1964107, 2024; active means well fitted inhibition curve with a large enough effect; inconclusive means small, poorly fitted or top-dose-only effect; inactive means no such curve, though single readings can be large or run the other way; further: nearly all actives have a fitted effect of over 60% in size; a reference inhibitor and vehicle were the controls
Target sequence (Q8JUX6 whole entry, looked up): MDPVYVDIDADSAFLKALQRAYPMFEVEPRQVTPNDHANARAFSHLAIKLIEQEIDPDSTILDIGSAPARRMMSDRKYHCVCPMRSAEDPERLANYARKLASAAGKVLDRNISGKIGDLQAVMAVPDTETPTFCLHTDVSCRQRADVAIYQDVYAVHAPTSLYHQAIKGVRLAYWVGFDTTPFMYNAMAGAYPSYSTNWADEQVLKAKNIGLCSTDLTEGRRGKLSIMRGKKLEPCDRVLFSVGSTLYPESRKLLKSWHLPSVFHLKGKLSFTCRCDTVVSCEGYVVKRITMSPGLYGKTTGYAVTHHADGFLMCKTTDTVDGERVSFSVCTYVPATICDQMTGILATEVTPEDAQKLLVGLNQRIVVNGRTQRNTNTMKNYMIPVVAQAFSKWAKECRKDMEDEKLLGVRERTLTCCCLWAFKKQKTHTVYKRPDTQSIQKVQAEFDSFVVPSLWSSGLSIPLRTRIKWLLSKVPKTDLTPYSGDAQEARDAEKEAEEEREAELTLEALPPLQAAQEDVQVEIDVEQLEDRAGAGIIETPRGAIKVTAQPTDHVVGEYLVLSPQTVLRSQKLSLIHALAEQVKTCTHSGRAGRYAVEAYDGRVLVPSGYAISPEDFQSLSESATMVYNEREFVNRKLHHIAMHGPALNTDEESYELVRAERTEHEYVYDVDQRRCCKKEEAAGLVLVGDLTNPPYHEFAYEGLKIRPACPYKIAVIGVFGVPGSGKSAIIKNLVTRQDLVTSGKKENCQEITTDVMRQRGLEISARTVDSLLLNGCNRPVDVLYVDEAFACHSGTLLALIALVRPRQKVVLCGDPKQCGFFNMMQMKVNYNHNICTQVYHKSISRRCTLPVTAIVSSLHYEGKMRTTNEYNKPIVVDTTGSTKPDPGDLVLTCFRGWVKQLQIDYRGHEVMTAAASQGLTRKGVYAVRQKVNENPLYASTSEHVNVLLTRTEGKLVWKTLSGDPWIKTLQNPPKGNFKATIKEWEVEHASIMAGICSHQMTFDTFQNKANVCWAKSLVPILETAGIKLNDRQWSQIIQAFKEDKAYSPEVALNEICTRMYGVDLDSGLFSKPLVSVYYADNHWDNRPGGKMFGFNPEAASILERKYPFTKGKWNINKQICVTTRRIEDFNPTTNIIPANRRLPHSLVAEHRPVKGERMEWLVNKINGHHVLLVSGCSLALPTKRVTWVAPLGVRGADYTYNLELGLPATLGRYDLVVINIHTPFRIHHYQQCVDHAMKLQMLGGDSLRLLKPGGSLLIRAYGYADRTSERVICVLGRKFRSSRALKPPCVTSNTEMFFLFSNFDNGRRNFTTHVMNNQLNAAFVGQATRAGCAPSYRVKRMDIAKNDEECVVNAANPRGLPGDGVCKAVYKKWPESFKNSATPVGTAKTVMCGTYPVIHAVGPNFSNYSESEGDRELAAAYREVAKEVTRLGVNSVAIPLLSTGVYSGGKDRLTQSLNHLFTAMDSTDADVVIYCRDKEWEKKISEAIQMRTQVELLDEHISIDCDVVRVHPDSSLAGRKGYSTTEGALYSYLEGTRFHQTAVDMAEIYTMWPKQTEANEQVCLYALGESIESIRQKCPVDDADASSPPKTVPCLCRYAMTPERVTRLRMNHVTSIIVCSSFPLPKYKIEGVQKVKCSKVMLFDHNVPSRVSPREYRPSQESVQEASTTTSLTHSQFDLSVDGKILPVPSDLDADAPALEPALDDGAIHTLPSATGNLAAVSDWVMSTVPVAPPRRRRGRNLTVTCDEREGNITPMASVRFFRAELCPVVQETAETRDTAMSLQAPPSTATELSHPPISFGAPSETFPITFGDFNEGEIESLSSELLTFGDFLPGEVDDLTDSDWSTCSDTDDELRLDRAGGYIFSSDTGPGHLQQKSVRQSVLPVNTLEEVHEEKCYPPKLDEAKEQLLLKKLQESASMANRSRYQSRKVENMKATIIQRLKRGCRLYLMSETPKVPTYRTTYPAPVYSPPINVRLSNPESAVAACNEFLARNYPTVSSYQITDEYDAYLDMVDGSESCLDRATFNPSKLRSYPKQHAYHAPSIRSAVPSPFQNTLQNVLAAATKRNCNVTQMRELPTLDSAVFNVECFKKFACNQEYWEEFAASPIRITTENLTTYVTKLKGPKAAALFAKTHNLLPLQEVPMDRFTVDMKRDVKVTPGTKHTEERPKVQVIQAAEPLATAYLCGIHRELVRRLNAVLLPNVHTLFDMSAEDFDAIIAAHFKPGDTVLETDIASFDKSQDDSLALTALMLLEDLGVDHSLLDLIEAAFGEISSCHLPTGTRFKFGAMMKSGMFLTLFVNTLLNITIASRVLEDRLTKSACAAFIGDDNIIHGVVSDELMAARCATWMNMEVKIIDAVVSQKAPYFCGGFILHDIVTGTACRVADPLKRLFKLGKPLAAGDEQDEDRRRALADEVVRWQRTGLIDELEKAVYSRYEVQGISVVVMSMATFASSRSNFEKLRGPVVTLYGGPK
* marks the source's active call; other numbers are inactive results; i = inactive; ? = inconclusive; & = joins results of further samples; [ ] = dose if it differs, or a comment. On the % scale 0 is the no-effect control and ±100 the full control effect; potency means the concentration at half of the fitted maximal effect. An excerpt; the hit share may differ from the screen's.

SMILES | nsP2pro inh
CC(=O)/C=C/C1(O)C(C)=CC(=O)CC1(C)C (configuration not stated) | -4%
CC1=C[C@H]2[C@@H](CC1=O)[C@H](C)C[C@H](O)[C@H]2C(C)C | 67%[activator]
CN1C(=O)NC(=O)C(C)(C2=CCCCC2)C1=O (configuration not stated) | -5%
COCCOC1CCN(C(=O)Nc2cccc(C)c2)CC1 | -10%
Cc1ccc(OCCn2c(CCNC(=O)c3cccc(C)c3)nc3ccccc32)cc1 | -6%
CC(C)(C)NS(=O)(=O)c1cncc(-c2cc(F)c3nc(N)nn3c2)c1 | -2%
COCCN1C(=O)CO[C@H]2CN(c3ncccn3)C[C@H]21 | 7.9µM*
CC(C)CN1CCN(C(=O)c2ccc3c(c2)N(S(C)(=O)=O)CC3)CC1 | -12%
CN(C)c1ccc(C(CNC(=O)c2ccccc2C(F)(F)F)N2CCOCC2)cc1 (configuration not stated) | -17%
O=C(Cc1ccc(Cl)c(Cl)c1)Nc1ccc(S(=O)(=O)Nc2ccccc2)cc1 | -11%
CC1NC(=O)C(Cc2c[nH]c3ccccc23)NC1=O (configuration not stated) | ?
CCCN1CCN(CCNC(=O)Nc2cc(OC)cc(OC)c2)CC1 | -16%
CCOC(=O)c1cccc(CNc2ccc(N(C)C(=O)Nc3ccccc3)cc2)c1 | ?
Cc1cc(C)nc(NC(=S)N2CCN(c3nccc4ccsc34)CC2)c1 | -13%
COCCNC(=O)Cn1ncc2c(C)n(Cc3ccc(C)cc3)c(C)c2c1=O | -12%
O=C1Cc2cc(C(=O)c3ccco3)ccc2N1 | i
COc1ccccc1CNC(=O)CCC1N=C2c3ccccc3N=C(SCC(=O)NCCc3ccc(OC)c(OC)c3)N2C1=O (configuration not stated) | -13%
CCOC(=O)c1ccc(NC(=O)CC2Nc3ccccc3NC2=O)cc1 (configuration not stated) | -32%
Cc1noc(C)c1C(=O)N1CC(n2cc(COCc3ccccc3)nn2)C1 | -2%
COc1cccc(CN2C(=O)c3ccccc3NC2c2ccc(OC)c(COc3c(C)cc(NC(C)=O)cc3C)c2)c1 (configuration not stated) | i
CC(C)Oc1ccc(C(=O)N2Cc3cnn(Cc4ccc(F)cc4)c3C2)cc1 | -2%
COc1ccc(Cl)cc1S(=O)(=O)NCc1ccc2c(c1)CCN2C(=O)c1cccc(C)c1 | -11%
CCc1ccccc1NC(=O)C1CCCN(S(=O)(=O)c2cccc3nsnc23)C1 (configuration not stated) | -15%
COc1cccc(CNC(=O)C(NS(=O)(=O)c2ccc3c(c2)oc(=O)n3C)C(C)C)c1 (configuration not stated) | -25%
CC(Sc1nccn1C)C(=O)Nc1ccccc1C#N (configuration not stated) | -12%
COc1ccc2cc(C3CN(C(=O)CNC(=O)C(C)C)CCO3)ccc2c1 (configuration not stated) | 3%
CCOC(=O)c1ccc(NC(=O)CC2C(=O)N(c3cccc(C)c3)C(=O)N2CCOC)cc1 (configuration not stated) | -12%
COCCNC(=O)CN1C(=O)NC(c2cccs2)C2=C1COC2=O (configuration not stated) | -2%
CCN1C(=O)Cc2cc(C(=O)NCc3c(C)cc(C)cc3C)ccc21 | -2%
COc1ccc(NC(=O)CSc2nccn2Cc2ccco2)cc1OC | -22%
CCN(CC)C(=O)/C(C#N)=C/c1cc(O)c(O)c([N+](=O)[O-])c1 | -13%&14%&21%
O=C1NCCCCCCN[C@H]2CCC[C@@H]12 | -3%
COc1ccc(C)cc1NC(=O)c1ccc2c(=O)n3c(nc2c1)CCCCC3 | -21%
CS(=O)(=O)N1CCCN(C(=O)CCCc2ccccc2)c2ccccc21 | i
C=CC(=O)N1CCCN(c2cc(NCCC(=O)O)nc(-c3ccccn3)n2)CC1 | 136%[activator]
CCOC(=O)C1CCCN(S(=O)(=O)c2ccc(N3CCCCS3(=O)=O)cc2)C1 (configuration not stated) | -18%
CCCO[C@@H]1O[C@H](CO)[C@@H](O)[C@H](O)[C@H]1O[C@@H]1OC[C@@H](O)[C@H](O)[C@H]1O | -15%
CN(C)CCN(C)[C@H]1[C@@H]2OC[C@@H](O2)[C@@H](NCc2ccc(N(C)C)cc2)[C@@H]1O | i
Oc1c(C(c2ccc(Cl)cc2Cl)N2CCN(Cc3ccccc3)CC2)sc2nc(-c3ccco3)nn12 (configuration not stated) | -20%
O=C(Nc1ccc(O)cc1)c1ccccc1O | -12%
Cc1cccc2c1nc1n2[C@@H](CNCc2nc3ccccc3n2C)COC1 | i
CC(C)c1cccc2c(-c3ccccc3)cc(-c3ccc(-c4ccc(C(=O)O)cc4)[nH]3)nc12 | 61%[activator]
C=CC/C=C\C/C=C\CCCCCCCc1cccc(O)c1C(=O)O | 92%[activator]
COc1cccc(C2CC(=O)Nc3c2c(=O)nc2c(C)cccn32)c1OC (configuration not stated) | -22%
CC(=O)O[C@@H]1C[C@@]2(C)C(CC[C@]3(C)C2CC=C2C4CC(C)(C)CC[C@]4(C(=O)O)CC[C@]23C)C(C)(C)[C@H]1O (some centres not stated) | 27%[10 µM]
O=C(Nc1ncnc2c1C(c1ccccc1)c1c(ccc3ccccc13)O2)c1ccccc1 (configuration not stated) | -25%
Cc1cccc(-n2cnc3cc(C(=O)N4CCCC(c5ccccc5)C4)ccc32)c1 (configuration not stated) | 1%
Cc1ccc(CNc2ncnc3ccc(-c4ccc5c(c4)OCO5)cc23)o1 | i
Cn1nnnc1Sc1ncnc2scc(-c3ccsc3)c12 | i
CCOc1ccc(CC(=O)NCc2ccc3c(c2)CCN3C(C)=O)cc1OCC | -18%
Cc1ccc(C#N)c(-c2cc(NCc3cccnc3)nc3[nH]ccc23)n1 | 4%
O=C(/C=C/c1cccs1)Nc1cccc([S+](=O)([O-])Nc2ccccc2F)c1 | -3%
CN(Cc1ccccc1)C(=O)c1cn(C)c2ccc(S(=O)(=O)N(C)C3CCCCC3)cc2c1=O | -8%
Cc1nc(C2(C)CCN(C(=O)CCCC(=O)n3nc(C)c4ccccc43)CC2)no1 | i
Cc1cccc(NC(=O)N2CCCCC2c2nc(-c3cnccn3)n[nH]2)c1 (configuration not stated) | i
COc1cccc(NC(=O)c2cnc(SCC(=O)N3CCOCC3)n(C)c2=O)c1 | -17%
O=c1ccc(-c2ccccc2F)c2n1C[C@H]1C[C@@H]2CN(Cc2ccc(CO)o2)C1 | ?
N#C[C@@H]1C[C@@H]2C[C@@H]2N1C(=O)[C@@H](N)C12CC3CC(CC(O)(C3)C1)C2 | -17%&-13%&-12%
Cc1cccc(C2NC(=O)c3c(sc4c3CCN(C)C4)N2)c1O (configuration not stated) | -29%
Cc1cnc(-c2ccccc2C(C)C)nc1NCc1ccc(-c2ccnc(C(F)(F)F)c2)cc1 | -5%
(cont.)
SMILES | nsP2pro inh
Cn1nc(-c2nc(C3CCOC3)no2)cc1-c1ccccc1 (configuration not stated) | i
COC(=O)[C@@H](C)NC(=O)[C@H]1CN(C(=O)c2cccnc2)CCN1S(=O)(=O)c1ccccc1 | -3%
COc1cccc(CNC(=O)CN2C(=O)COc3ccc(S(=O)(=O)Nc4ccccc4)cc32)c1 | -7%
CCOc1ccccc1NC(=O)c1nnn(CC(=O)Nc2ccccc2CC)c1N | -6%
COc1cccc(CNc2ccc(S(=O)(=O)Nc3nccs3)cc2)c1 | i
Cc1ccc(CC(=O)N2CCC3(C2)C(=O)N(C)c2ccccc23)cc1 (configuration not stated) | -2%
Cc1cc(C)cc(NS(=O)(=O)c2ccc3[nH]cc(C(=O)NCc4ccccc4Cl)c(=O)c3c2)c1 | -11%
CN[C@@H](C)C(=O)N[C@@H]1C(=O)N(Cc2c(C)ccc3ccccc23)c2ccc(C#N)cc2N(C(C)=O)[C@H]1C | 2%
O=C(O)C[C@@H]1CCN(C(=O)Nc2ccc(C(F)(F)F)cc2)C[C@@H]1CCN1C[C@@H]2C[C@H](C1)c1cccc(=O)n1C2 | -23%
O=C1NC[C@@H](CCC(=O)N2CCc3ccccc32)N2C[C@@H](NCc3ccc(CO)o3)C[C@@H]12 | -27%
O=C(Cn1ccnc1[N+](=O)[O-])NCc1ccccc1 | -1%
CC1CCC2C(C)(C)C(O)CCC2(C)C12Cc1c(O)cc3c(c1O2)CN=C3N (configuration not stated) | ?
CO[C@H]1[C@@H](O)CC(OC2[C@@H](O)CC(OC3[C@@H](O)C[C@H](OC4CC[C@@]5(C)C(CCC6C5CC(O)[C@]5(C)[C@H](C7=CC(=O)OC7)CCC65O)C4)O[C@@H]3C)O[C@@H]2C)O[C@@H]1C (some centres not stated) | -10%[39.2 µM]
CCC(Sc1nc2c(sc3ccccc32)c(=O)n1CCCC(=O)NC1CCCC1)C(=O)Nc1cccc(OC)c1 (configuration not stated) | -27%
O=C(Cc1ccc2c(c1)OCO2)N1CCOCC2(CN(Cc3ccccc3)C2)C1 | i

Given as a markdown table: 13 of the compounds above.
| smiles | nsP2pro inh |
| --- | --- |
| COc1cccc(CNC(=O)CN2C(=O)COc3ccc(S(=O)(=O)Nc4ccccc4)cc32)c1 | -7% |
| CCOc1ccccc1NC(=O)c1nnn(CC(=O)Nc2ccccc2CC)c1N | -6% |
| COc1cccc(CNc2ccc(S(=O)(=O)Nc3nccs3)cc2)c1 | i |
| Cc1ccc(CC(=O)N2CCC3(C2)C(=O)N(C)c2ccccc23)cc1 (configuration not stated) | -2% |
| Cc1cc(C)cc(NS(=O)(=O)c2ccc3[nH]cc(C(=O)NCc4ccccc4Cl)c(=O)c3c2)c1 | -11% |
| CN[C@@H](C)C(=O)N[C@@H]1C(=O)N(Cc2c(C)ccc3ccccc23)c2ccc(C#N)cc2N(C(C)=O)[C@H]1C | 2% |
| O=C(O)C[C@@H]1CCN(C(=O)Nc2ccc(C(F)(F)F)cc2)C[C@@H]1CCN1C[C@@H]2C[C@H](C1)c1cccc(=O)n1C2 | -23% |
| O=C1NC[C@@H](CCC(=O)N2CCc3ccccc32)N2C[C@@H](NCc3ccc(CO)o3)C[C@@H]12 | -27% |
| O=C(Cn1ccnc1[N+](=O)[O-])NCc1ccccc1 | -1% |
| CC1CCC2C(C)(C)C(O)CCC2(C)C12Cc1c(O)cc3c(c1O2)CN=C3N (configuration not stated) | ? |
| CO[C@H]1[C@@H](O)CC(OC2[C@@H](O)CC(OC3[C@@H](O)C[C@H](OC4CC[C@@]5(C)C(CCC6C5CC(O)[C@]5(C)[C@H](C7=CC(=O)OC7)CCC65O)C4)O[C@@H]3C)O[C@@H]2C)O[C@@H]1C (some centres not stated) | -10%[39.2 µM] |
| CCC(Sc1nc2c(sc3ccccc32)c(=O)n1CCCC(=O)NC1CCCC1)C(=O)Nc1cccc(OC)c1 (configuration not stated) | -27% |
| O=C(Cc1ccc2c(c1)OCO2)N1CCOCC2(CN(Cc3ccccc3)C2)C1 | i |

Continuation:
SMILES | nsP2pro inh
CCC1CN(C(=O)N2CCC(C(=O)NCc3ccc(C)o3)CC2)c2ccccc2O1 (configuration not stated) | -28%
CCN(CC)C(=O)[C@@H]1C[C@@H](n2cc(Cn3c(C)nc4ccccc43)nn2)CN1 | -6%
CCc1cc(C(=O)N2CCC3(CCC(=O)N(CCc4cnc[nH]4)C3)CC2)cs1 | i
COc1ccc([C@@H]2CC(=O)c3c(O)cc(O[C@@H]4O[C@H](CO[C@@H]5O[C@@H](C)[C@H](O)[C@@H](O)[C@@H]5O)[C@@H](O)[C@H](O)[C@@H]4O)cc3O2)cc1O | 3%
Cc1cccc(N(CC(=O)NCCSCc2cccc(Cl)c2)S(=O)(=O)c2ccccc2)c1C | ?
C=CCCOC(=O)N1C[C@@H](CO)[C@@H]2Oc3ccc(Cl)cc3[C@@H]21 | -1%
CC(=O)N1CCCC(c2nn(-c3ccccn3)c(=O)[nH]2)C1 (configuration not stated) | i
CC(=O)N[C@@H](CCCCN)C(=O)N(C)[C@@H](CC(C)C)C(=O)N[C@H](C(=O)N(C)[C@@H](Cc1ccccc1)C(=O)N[C@H](Cc1ccccc1)C(N)=O)C(C)C | -6%[2.68 µM]
Cn1c(=O)c2c(SCC(=O)NCC3CCCO3)nc(-c3ccccc3F)nc2n(C)c1=O (configuration not stated) | 8%
Cn1cc(CN2C[C@@H]3C[C@H](C2)c2ccc(NS(=O)(=O)c4cccc(F)c4)c(=O)n2C3)c2ccccc21 | ?
Cc1ccc(CN2CCC(C3CCN(S(C)(=O)=O)CC3)C2)o1 (configuration not stated) | -21%
O=C(O)c1ccc2c(c1)N(C(=O)c1ccc(F)cc1)CC2 | 3%
CC[S+](=O)([O-])N1C[C@@H](CO)[C@@H]2Oc3c(F)cccc3[C@@H]21 | -3%
NC(=O)c1ccc(N(C(N)=O)c2c(F)cccc2F)nc1-c1ccc(F)cc1F | -4%
O=C1c2cccnc2OC(COc2ccccc2)CN1Cc1cccs1 (configuration not stated) | -10%[10 µM]
CCn1cc(NC(=S)Nc2cc(Cl)ccc2OC)c(C(N)=O)n1 | 2%
Cc1cnc(-c2ccccc2C(C)C)nc1NCc1ccc(C#N)cc1 | i
O=C1Nc2ccc(Cl)cc2/C1=C\c1cc(Cl)c(O)c(Cl)c1 | i
COc1ccc(-c2nc3ccccc3c(=O)n2Cc2ccco2)cc1COc1ccc(NC(C)=O)cc1 | ?
COC1=C(OC)C(=O)C(CC=C(C)CCC=C(C)CCC=C(C)CCC=C(C)CCC=C(C)CCC=C(C)CCC=C(C)CCC=C(C)CCC=C(C)CCC=C(C)C)=C(C)C1=O | -3%[2.68 µM]
Cc1cccc(CNC(=O)C2CCN(S(=O)(=O)c3ccc4c(c3)CCCN4C(=O)C3CCC3)CC2)c1 | -14%
C=C1CC(=O)C2OC2(C)CC2OC(=O)C(=C)C2C(O)C1OC(=O)/C(C)=C\C (configuration not stated) | ?
CCOCCCn1c(=N)c(C(=O)NCc2ccco2)cc2c(=O)n3ccccc3nc21 | -27%
CCn1cc(-c2ccccc2)cc1C(=O)O | -8%
Cc1ccc(NC(=O)C2CCN(S(=O)(=O)c3cccc4nonc34)CC2)cc1C | -25%
O=C1CCc2cc(S(=O)(=O)Nc3ccc4c(c3)OCCO4)ccc2N1 | -3%
CNc1oc(-c2cccs2)nc1C#N | 2%
